BJeLR lethal: BJeLR cell viability loss | AID 1554 | BJeLR (HRASV12) viability, CellTiter-Glo ATP luminescence, 48 h; reference of the scale not given here | inhibition, % (test concentration not listed) | 0.17% of 300,000 active;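 active = replicate mean above 50%; inconclusive = above 50% but judged a plate artefact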;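 also: 50 nL library stock added to about 25 µL; numbers are from one replicate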
Mtb hypoxia inh: inhibitors of hypoxia-regulated fluorescent reporter in Mycobacterium tuberculosis. M. tuberculosis hypoxia-regulated fluorescent reporter, fluorescence. fluorescence inhibition, % (test concentration not listed). 0.1% of 300,000 active. AID 1159583;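 active = 35 to 45% if threefold the growth effect, above 45% if 1.5-fold the growth effect; inactive = the rest, general growth blockers included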;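 also: wells of about 50 µL received 100 nL stock; 0% = vehicle wells and 100% = reference inhibitor wells; whole bacteria with a GFP reporter of the hypoxia response; strong numbers were not always called active; many hits fall short of the cut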
PrP 5UTR inh: inhibition of PrP 5' UTR reporter expression; 0.35% of 340,000 active; AID 488862; cell-based PrP 5' UTR mRNA reporter, plate reader; inhibition, % (concentration not given with the values);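 active = every replicate at 50% or more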;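 also: 0 = median of the neutral control wells; tested in H4 reporter cells; numbers are from one replicate; inactives centre near -14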
ugtP null kill: compounds lethal to S. aureus RN4220 ugtP deletion mutant | growth inhibition, % (no concentration beside the values) | 0.54% of 330,000 active | OD600 growth, 16 h; some inactives read as strong as hits | AID 1259309;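 active = z-score under -3 and OD600 up to 0.15 on both plates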;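 also: plate controls were untreated wells for no effect and antibiotic for full effect; wells of about 80 µL received 100 nL stock; the first replicate is given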
Autofluor counter: flagged as autofluorescent in microsphere protease counterscreen; compound autofluorescence counterscreen, microsphere flow cytometry; stronger effect = higher value; fluorescence intensity (concentration not given with the values); 3.1% of 360,000 active;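 active = at least 3 SD above the mean of all compounds, about 16000 in these data; inconclusive = too few beads counted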;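 also: 100 nL of 1 mM stock went into each well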
RN4220 kill: S. aureus RN4220 growth inhibition. inhibition, % (test concentration not listed). 0.33% of 330,000 active. AID 1259311. OD600, 16 h;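 active = z-score of -3 or lower and OD600 up to 0.18 on both plates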;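 also: plate controls were untreated cells for no effect and reference antibiotic for full effect; stock transfer was 100 nL into about 80 µL; one replicate is shown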
Mtb hypoxia inh growth: recorded beside Mtb hypoxia inh, whose call it bears; growth inhibition, %; measured here: M. tuberculosis growth (absorbance);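 0% = vehicle and 100% = reference antibiotic; read after six days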
* hit, by the source's call; ? = inconclusive; nt = not tested or not shown.

structure	BJeLR lethal	Mtb hypoxia inh	Mtb hypoxia inh growth	PrP 5UTR inh	ugtP null kill	Autofluor counter	RN4220 kill
COc1ccc2nc(N(CCN(C)C)C(=O)/C=C/c3cccs3)sc2c1	-8.0	5.8	22.5	-9.8	2.1	nt	-3.1
COC(=O)c1ccc(NC(=O)COC(=O)C2CCC2)cc1	-2.8	2.3	-5.4	-3.6	1.0	?	4.0
COc1ccc2nc3sc(C(=O)NCCCN4CCc5ccccc5C4)cc3cc2c1	-0.1	3.4	4.2	-25.9	-1.1	7865	-1.4
COc1cc(-c2nnn(CC(=O)NC3CCS(=O)(=O)C3)n2)ccc1OCc1ccccc1 (centres undefined)	5.7	nt	nt	-18.6	0.2	4180	0.8
Cc1c(C(=O)O)oc2ccc(S(=O)(=O)N3CCC(C)CC3)cc12	nt	nt	nt	-18.9	12.7	2108	4.5
CCCCn1c(N)c(N(CCC(C)C)C(=O)COC(=O)/C=C/c2ccc(F)cc2)c(=O)[nH]c1=O	nt	6.2	7.0	-20.5	14.5	3190	10.4
CC1=N/C(=C/c2cc(Br)cc(Br)c2O)C(=O)O1	-0.2	nt	nt	-24.2	nt	3668	nt
Cc1ccc(CNC(=O)COc2ccc(C(=O)c3ccc(F)cc3)cc2)cc1	0.4	10.9	3.8	-1.0	7.1	1963	-0.9
Cc1nc2ccccn2c1C(=O)NCc1ccc2c(c1)OCO2	1.0	nt	nt	-25.7	1.9	9080	-0.7
COc1ccc(C(=O)Nc2cccc(C(=O)N3CCCC3)c2)cc1	6.3	3.2	8.1	-28.8	-2.9	7884	-1.4
COC(=O)c1c(NC(=O)C(C)C)sc2c1C(C(=O)OC)CC2 (centres undefined)	-6.8	nt	nt	-9.2	-0.8	3299	0.3
COc1cc(/C=N/N(C)C)cc(Br)c1O	2.6	nt	nt	-11.7	nt	3766	nt
CCN(c1cccc(C)c1)c1ncnc2nc[nH]c12	4.9	11.9	4.7	-4.6	11.8	5911	4.7
COc1cccc2c1OCC(C(=O)OCc1cccnc1)=C2	2.6	6.9	-0.8	-3.8	0.3	4150	5.3
CC1=N/C(=C/c2cccnc2)C(=O)O1	1.8	-6.9	-2.8	-8.9	17.0	4041	9.7

Quoted at random: two entries already listed.
structure	BJeLR lethal	Mtb hypoxia inh	Mtb hypoxia inh growth	PrP 5UTR inh	ugtP null kill	Autofluor counter	RN4220 kill
CC1=N/C(=C/c2cccnc2)C(=O)O1	1.8	-6.9	-2.8	-8.9	17.0	4041	9.7
COc1ccc(C(=O)Nc2cccc(C(=O)N3CCCC3)c2)cc1	6.3	3.2	8.1	-28.8	-2.9	7884	-1.4

Other records.
structure	BJeLR lethal	Mtb hypoxia inh	Mtb hypoxia inh growth	PrP 5UTR inh	ugtP null kill	Autofluor counter	RN4220 kill
CCc1ccc(C(=O)COC(=O)C(CCSC)NC(=O)C23CC4CC(CC(C4)C2)C3)cc1 (centres undefined)	-4.4	15.0	-2.8	-20.6	11.4	2639	4.3
CCN(CC)S(=O)(=O)c1ccc(NC(=S)Nc2ccccc2)cc1	1.1	15.2	8.1	-1.9	-1.4	4145	7.4
O=c1oc2ccccc2c(O)c1C(c1ccccn1)c1c(O)c2ccccc2oc1=O	-2.4	nt	nt	-25.3	nt	4120	nt
O=C1CC(c2ccccc2)C(C(=O)Nc2ccccc2F)N1 (centres undefined)	-5.5	nt	nt	-36.3	-3.4	6108	-0.1
O=C(NCCc1c[nH]c2ccccc12)/C(=C/c1cccnc1)NC(=O)c1ccco1	-2.2	12.3	12.9	-9.3	3.9	4597	4.3
O=C(C1CCN(C2CC(=O)N(c3ccc(F)cc3)C2=O)CC1)N1CCOCC1 (centres undefined)	nt	nt	nt	-18.8	-2.8	4925	-1.9
O=C(CSc1ncccn1)NC1CCCc2ccccc21 (centres undefined)	9.2	11.3	-2.6	-9.4	2.8	5893	0.4
COc1ccc(CCNCc2ccccc2F)cc1	2.5	0.3	-2.5	-27.3	-2.8	3752	2.9
O=C(Nc1nnc(-c2ccccc2SCc2ccccc2)s1)Nc1ccccc1F	18.4	-0.4	1.8	-0.5	-5.6	4287	3.2
Cc1cc2oc(=O)cc(CN(C)Cc3cccc(F)c3)c2cc1C	-0.8	-4.4	-1.5	-40.1	-4.0	4220	3.5
COc1ccc(N(CC(=O)NC2CCCC2)C(=O)Cn2nnc(-c3ccc(C)cc3)n2)cc1OC	-16.5	-2.9	2.8	5.9	-12.7	16197*	-1.7
CC1CCN(CC#CCOc2ccc(Cl)cc2)CC1	-3.0	20.8	9.9	-27.4	7.8	3526	6.3
CCOC(=O)c1cc([N+](=O)[O-])sc1NC(=O)CC	-0.9	-1.7	0.6	-32.3	5.3	3869	5.9
Cc1csc(C(=NO)c2csc(C)n2)n1	nt	8.4	0.1	nt	12.9	nt	2.9
COc1ccc(NC(=O)c2ccc(S(=O)(=O)N3CC(C)OC(C)C3)cc2)cc1 (centres undefined)	nt	-3.6	1.4	-48.6	-2.1	8797	4.1

(next part)
structure	BJeLR lethal	Mtb hypoxia inh	Mtb hypoxia inh growth	PrP 5UTR inh	ugtP null kill	Autofluor counter	RN4220 kill
COc1ccc(CC(=O)NCc2cccc(CNC(=O)Cc3ccc(OC)c(OC)c3)c2)cc1OC	-1.6	1.8	2.0	-14.6	4.6	3908	4.0
CCOC(=O)C(=O)C1=CN(Cc2ccccc2)C=C(C#N)C1	-7.5	-0.6	1.1	-5.5	6.9	3437	6.6
c1ccc(Cc2nn3c(Cn4cnc5ccccc54)nnc3s2)cc1	5.3	6.6	1.8	-11.8	15.3	6681	1.6
CN(C)c1ccc(C(c2nnnn2C(C)(C)C)N2CCc3ccccc3C2)cc1 (centres undefined)	-2.2	nt	nt	nt	9.7	nt	-4.1
COc1ccc(-c2cc(C(=O)N3CCCC3)no2)cc1OC	-10.8	5.4	5.6	-25.5	-1.3	3750	3.1
O=C(Cn1ccc(NC(=O)OCc2ccccc2)nc1=O)NCc1nc2ccccc2[nH]1	nt	12.0	4.9	-22.9	-1.2	3145	5.7
CC(=O)N(C(C)=O)n1c(/C=C/c2cccc([N+](=O)[O-])c2)nc2ccccc2c1=O	-16.1	4.7	2.4	-30.5	4.8	4016	3.2
Cc1ccc(NC(=O)CN2CCN(C(=O)c3ccco3)CC2)cc1S(=O)(=O)N(C)C	nt	10.3	6.2	-16.8	4.0	3509	7.0
O=C(/C=C/c1ccc(Cl)cc1)N1CCN(c2ccc([N+](=O)[O-])c(N3CCOCC3)c2)CC1	1.7	-0.3	-8.1	-24.5	-4.0	8893	0.5
COc1ccc(C2=NN(C(=O)CN3CCCCC3)C(c3ccc(OC)cc3)C2)cc1 (centres undefined)	16.2	0.9	-5.0	-8.0	10.5	4424	-2.1
CCCCN1C[C@H](C)[C@@H](CC(=O)NCc2ccccc2)C1=O	0.5	nt	nt	-8.0	nt	4495	nt
CCOc1cc(N2CCOCC2)c(OCC)cc1NC(=O)Cc1cccc(OC)c1	-8.1	nt	nt	-5.0	1.9	1786	4.8
COc1ccccc1OCC(=O)Nc1ccc(S(=O)(=O)Nc2cc(C)on2)cc1	3.1	-2.9	7.1	-25.4	11.9	3870	8.6
CC(C)(/C=N/O)/[N+]([O-])=C/c1ccco1	-1.8	nt	nt	-12.0	nt	2756	nt
CC(C)OP(=O)(CCP(=O)(OC(C)C)OC(C)C)OC(C)C	6.3	3.1	18.9	-18.2	-0.7	3273	-0.7

Copied from the list:
COc1ccc(CC(=O)NCc2cccc(CNC(=O)Cc3ccc(OC)c(OC)c3)c2)cc1OC – ugtP null kill: 4.6
COc1ccc(C2=NN(C(=O)CN3CCCCC3)C(c3ccc(OC)cc3)C2)cc1 (centres undefined) – Mtb hypoxia inh: 0.9
O=C(/C=C/c1ccc(Cl)cc1)N1CCN(c2ccc([N+](=O)[O-])c(N3CCOCC3)c2)CC1 – Mtb hypoxia inh: -0.3
CC(=O)N(C(C)=O)n1c(/C=C/c2cccc([N+](=O)[O-])c2)nc2ccccc2c1=O – Mtb hypoxia inh: 4.7

New compounds follow:
structure	BJeLR lethal	Mtb hypoxia inh	Mtb hypoxia inh growth	PrP 5UTR inh	ugtP null kill	Autofluor counter	RN4220 kill
CCOC(=O)c1c(N=CC2C(=O)CCCC2=O)sc(C)c1C	nt	4.1	-3.5	nt	-6.5	nt	7.7
CCOC(=O)c1cc2sccc2n1Cc1ccccc1	1.1	13.3	0.0	2.2	42.1	7664	-4.5
O=C1/C(=C\c2ccc(-c3ccccc3[N+](=O)[O-])o2)C(c2ccccc2)=NN1c1ccccc1	17.6	12.4	10.7	-19.7	1.4	8718	58.9
CCCOc1ccccc1OCC(=O)Nc1ccc(S(=O)(=O)N2CCCC2)cc1	-10.2	-1.8	2.4	-5.0	-3.6	6066	-10.2
COc1ccc(-c2csc(NC(=O)CN3C(=O)NC4(CCCC4)C3=O)n2)cc1	-6.5	6.6	-0.5	-10.9	8.7	nt	3.3
O=C(Cc1ccccc1Cl)NCc1cccnc1	-6.1	-4.4	-1.0	-13.8	5.1	4161	3.5
Cc1ccc(CNC(=O)C2CCCN(S(=O)(=O)c3ccc(F)cc3)C2)cc1 (centres undefined)	-7.3	3.9	-3.4	-10.7	13.6	?	5.7
COc1ccccc1S(=O)(=O)CC(O)COc1ccc(F)cc1Cl (centres undefined)	-6.5	15.6	8.4	-32.7	4.7	3310	7.1
CCCC(=O)Nc1nc(-c2ccc(Cl)s2)cs1	-0.8	0.9	-3.4	-25.0	46.6	4305	6.6
CCOC(=O)c1c[nH]c2c(C)ccc(Cl)c2c1=O	6.0	-6.5	0.0	-25.0	-1.9	4131	2.0
CCOc1ccccc1NC(=O)c1nc[nH]c1C(=O)Nc1ccccc1OCC	-14.8	8.6	17.6	-35.4	-14.2	3605	-0.9
COc1ccccc1C(=O)Nc1ccc(C(=O)c2ccccc2)cc1	-3.0	nt	nt	-24.1	nt	3429	nt
CCc1ccc(N(C(=O)CNC(=O)c2cccs2)C(C(=O)NC(C)(C)C)c2cc(OC)c(OC)c(OC)c2)cc1 (centres undefined)	-2.9	1.4	13.6	-8.9	2.3	5298	2.6
Cc1ccc(NC(=O)C2C(C(=O)O)C3C=CC2C32CC2)cc1 (centres undefined)	1.7	3.9	4.3	-30.1	6.5	19275*	4.8
CCCCn1nnc(NC(=O)c2ccc(-c3ccccc3[N+](=O)[O-])o2)n1	-2.9	4.1	-2.5	-35.2	-8.9	4571	2.8

(listing goes on)
structure	BJeLR lethal	Mtb hypoxia inh	Mtb hypoxia inh growth	PrP 5UTR inh	ugtP null kill	Autofluor counter	RN4220 kill
Fc1ccc(CNc2ncnc3cc(Cl)ccc23)cc1	-5.8	-7.1	4.7	-2.4	-17.4	3912	-4.7
COC(=O)c1ccc(CN=C(NS(=O)(=O)c2ccccc2)c2ccccc2)cc1	nt	9.3	3.0	-8.1	5.1	3890	5.9
Cc1nc(NCCc2cnc[nH]2)c2oc3ccccc3c2n1	-12.8	-2.5	1.8	-13.5	-7.6	11907	-1.9
CC(NS(=O)(=O)c1ccc(Cl)cc1)C(=O)Nc1ccc2c(c1)OCCO2 (centres undefined)	6.4	6.1	7.2	-20.8	14.3	3627	2.4
Cc1cc(Cl)ccc1NC(=O)CN1CCC(C(O)(c2ccccc2)c2ccccc2)CC1	0.3	19.5	8.4	9.7	-3.7	7976	-2.1
CCCCC(=O)Nc1ccc(C(=O)N2CCC(C(=O)OCC)CC2)cc1	-0.6	15.6	10.2	-14.6	-7.7	23061*	3.2
CC1CCCC(NC(=O)CN2C(=O)NC(C)(c3ccccc3)C2=O)C1C (centres undefined)	nt	1.8	-0.5	-14.7	5.1	5059	2.6
O=C(Nc1ccc(N2CCCCC2)c(Cl)c1)c1ccc(N2CCOCC2)c([N+](=O)[O-])c1	-0.9	6.7	7.2	-17.5	15.3	9737	-3.2
C[C@@]12C(=O)N(Cc3ccco3)CC(=O)N1C1c3ccccc3OCC1C2c1ccccc1 (some centres undefined)	nt	-0.2	10.0	nt	-1.9	nt	2.2
COc1ccc(N2CCN(C(=O)c3cc4c(s3)-c3ccccc3OC4)CC2)cc1	12.1	10.0	8.9	-11.4	7.3	4604	-3.2
O=C(Cc1ccccc1)NNC(=O)C1CCCC1	-4.6	-0.8	-3.4	-11.7	1.6	4813	1.9
CC(C)(C)C(=O)NC1CCN(S(=O)(=O)c2ccc(C(F)(F)F)cc2)CC1	-8.1	6.8	-3.4	-14.4	4.5	4307	1.3
Cc1sc2nc(COC(=O)c3cccc(S(=O)(=O)N(C)c4ccccc4)c3)[nH]c(=O)c2c1C	13.8	9.7	3.1	-8.7	4.1	7240	8.5
O=C(Nc1cccc(C(F)(F)F)c1)c1cccc(NS(=O)(=O)c2ccc(O)c(C(=O)O)c2)c1	-5.4	11.4	-0.6	-2.6	4.1	3997	-7.9

From PubChem
